VDR inh – vitamin D3 receptor (human) inhibition; P11473; VDR-SRC2-3 peptide fluorescence polarization, 2 h; Potency, µM, inactives show max response, negative = inhibition, actives largely listed as inhibitors; actives 0.93% (n = 400,000); active means well fitted inhibition curve with a large enough effect; inconclusive means small, poorly fitted or top-dose-only effect, or another doubt; inactive means no such curve, though single readings can be large or run the other way; further: series mostly up to about 120 µM
Target sequence (P11473 whole entry, looked up): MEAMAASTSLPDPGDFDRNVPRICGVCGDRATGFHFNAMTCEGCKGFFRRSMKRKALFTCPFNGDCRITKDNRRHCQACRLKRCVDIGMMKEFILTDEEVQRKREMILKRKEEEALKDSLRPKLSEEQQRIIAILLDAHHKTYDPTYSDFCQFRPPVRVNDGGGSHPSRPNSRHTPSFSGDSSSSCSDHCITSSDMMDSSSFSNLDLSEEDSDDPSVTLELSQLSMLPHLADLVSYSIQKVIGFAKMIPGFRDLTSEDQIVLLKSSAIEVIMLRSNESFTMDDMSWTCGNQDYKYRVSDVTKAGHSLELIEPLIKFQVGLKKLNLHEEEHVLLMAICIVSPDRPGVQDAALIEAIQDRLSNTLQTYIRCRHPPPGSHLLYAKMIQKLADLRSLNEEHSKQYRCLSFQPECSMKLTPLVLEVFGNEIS
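Signal is fluorescence polarization, reporting how far test compounds block the interaction of VDR with the SRC2-3 coregulator peptide after a 2 h room-temperature incubation.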
Starred values were filed as active, the others as inactive; ? = inconclusive; & = joins results of further samples. On the % scale 0 is the no-effect control and ±100 the full control effect; potency means the concentration at half of the fitted maximal effect. Not all compounds are listed. The share of hits here may be higher or lower than overall.

> CC1OC(OCC2OC(Oc3cc(O)c4c(c3)OC(c3ccc(O)cc3)CC4=O)C(O)C(O)C2O)C(O)C(O)C1O (stereo not drawn)
- VDR inh = -4%
> Cc1cccc(Nc2cc(Cl)nc(SCC(=O)O)n2)c1C
- VDR inh = -16%
> O=C(O)/C=C/c1ccc(O)cc1
- VDR inh = -14%
> COc1c(O)cc2c(c1O)[C@@H]1O[C@H](CO)[C@@H](O)[C@H](O)C1OC2=O (stereo partly drawn)
- VDR inh = 21%
> CCC(Sc1nc2ccccc2c2nc(CCn3cncc3C)nn12)C(=O)Nc1cccc(OC)c1 (stereo not drawn)
- VDR inh = 11%
> C#C[C@@]1(O)CCC2C3CCC4=CC(=O)CCC4C3CC[C@@]21CC (stereo partly drawn)
- VDR inh = 5%
> C/C=C/C=N/NC(=O)c1ccncc1
- VDR inh = -4%
> COc1c(O)cc2c(c1O)[C@@H]1OC(CO)C(O)C(O)[C@H]1OC2=O (stereo partly drawn)
- VDR inh = 0%
> NCCNC(=O)c1ccc(Cl)cn1
- VDR inh = -14%
> CCCCOc1ccc(CC(=O)NO)cc1
- VDR inh = -9%&2%

> CCOC(=O)NNc1nncc2ccccc12
- VDR inh = 11%&1%&14%
> CC12CCC(=O)C=C1CCC1C2CCC2(C)C1CC[C@]2(O)C(=O)CO (stereo partly drawn)
- VDR inh = 0%
> CCCC(=O)O[C@]1(C(=O)COC(C)=O)CC[C@H]2C3C[C@H](F)C4=CC(=O)C=CC4(C)[C@@]3(F)[C@@H](O)CC21C (stereo partly drawn)
- VDR inh = 4%
> CC[C@]1(O)C[C@@H]2CN(CCc3c([nH]c4ccccc34)[C@@](C(=O)OC)(c3cc4c(cc3OC)N(C)[C@H]3[C@@](O)(C(=O)OC)[C@H](OC(C)=O)[C@]5(CC)C=CCN6CC[C@]43[C@@H]65)C2)C1
- VDR inh = -7%
> CC(C)(CO)C(O)C(=O)NCCCO (stereo not drawn)
- VDR inh = 5%
> O=C(Nc1ccc(Cl)c(Cl)c1)C1CC1
- VDR inh = 4%
> CCn1cc(C(=O)O)c(=O)c2cc(F)c(N3CCNCC3)nc21
- VDR inh = -8%&6%
> Nc1ncnc2nc[nH]c12
- VDR inh = 28%&-20%&2%&-8%
> CC(=O)N1CC(O)CC1C(=O)O (stereo not drawn)
- VDR inh = 7%
> CN(C)CCOc1ccccc1Cc1ccccc1
- VDR inh = 6%&2%

Molecules above containing an aryl methoxy group:
> COc1c(O)cc2c(c1O)[C@@H]1O[C@H](CO)[C@@H](O)[C@H](O)C1OC2=O (stereo partly drawn)
- VDR inh = 21%
> CCC(Sc1nc2ccccc2c2nc(CCn3cncc3C)nn12)C(=O)Nc1cccc(OC)c1 (stereo not drawn)
- VDR inh = 11%
> COc1c(O)cc2c(c1O)[C@@H]1OC(CO)C(O)C(O)[C@H]1OC2=O (stereo partly drawn)
- VDR inh = 0%
> CC[C@]1(O)C[C@@H]2CN(CCc3c([nH]c4ccccc34)[C@@](C(=O)OC)(c3cc4c(cc3OC)N(C)[C@H]3[C@@](O)(C(=O)OC)[C@H](OC(C)=O)[C@]5(CC)C=CCN6CC[C@]43[C@@H]65)C2)C1
- VDR inh = -7%

3 entries from above, sorted by heavy-atom count, smallest number first:
> CC(=O)N1CC(O)CC1C(=O)O (stereo not drawn)
- VDR inh = 7%
> CC(C)(CO)C(O)C(=O)NCCCO (stereo not drawn)
- VDR inh = 5%
> CCCC(=O)O[C@]1(C(=O)COC(C)=O)CC[C@H]2C3C[C@H](F)C4=CC(=O)C=CC4(C)[C@@]3(F)[C@@H](O)CC21C (stereo partly drawn)
- VDR inh = 4%

Further structures follow.
> CC(=O)O[C@@]12CO[C@@H]1C[C@H](O)[C@@]1(C)C(=O)[C@H](O)C3=C(C)[C@@H](OC(=O)C(O)[C@@H](NC(=O)OC(C)(C)C)c4ccccc4)C[C@@](O)([C@@H](OC(=O)c4ccccc4)[C@H]21)C3(C)C (stereo partly drawn)
- VDR inh = -9%
> Cc1cccc(C)c1NC(=O)CN(CC(=O)O)CC(=O)O
- VDR inh = 5%
> Cc1cc(C)cc(OCC2CNC(=O)O2)c1 (stereo not drawn)
- VDR inh = 6%
> CCCCCCCCCCCCCCNCCO
- VDR inh = 1%
> C[C@@H]1C[C@H]2[C@@H]3C[C@H](F)C4=CC(=O)C=C[C@]4(C)[C@@]3(F)[C@@H](O)C[C@]2(C)[C@@]1(O)C(=O)COC(=O)C(C)(C)C
- VDR inh = -10%
> CCCCC(=O)O[C@]1(C(=O)CO)[C@H](C)C[C@H]2[C@@H]3CCC4=CC(=O)C=C[C@]4(C)[C@@]3(F)[C@@H](O)C[C@@]21C
- VDR inh = 2%
> CCCOC(C(=O)OC1CCN(C)CC1)(c1ccccc1)c1ccccc1
- VDR inh = 3%
> Cc1ccnc(NC(c2cccc(O)c2)c2ccc3ccc(C)nc3c2O)c1 (stereo not drawn)
- VDR inh = ?
> COc1cc([C@H]2Oc3cc([C@H]4Oc5cc(O)cc(O)c5C(=O)[C@@H]4O)ccc3O[C@@H]2CO)ccc1O
- VDR inh = ?
> COC(=O)C1=CO[C@@H](OC2OC(CO)C(O)C(O)C2O)[C@@H]2[C@@H](C)[C@@H](O)C[C@H]12 (stereo partly drawn)
- VDR inh = 4%

> CC(=O)Nc1ncc([N+](=O)[O-])s1
- VDR inh = 10%
> CCCOC(=O)c1ccc(O)cc1
- VDR inh = -9%&7%
> CC(=O)Nc1ccccc1
- VDR inh = 4%&1%&0%
> CCCCNC(=O)[C@@H]1Cc2ccccc2N1C(=O)[C@H](N)CC
- VDR inh = -2%
> Cn1c(=O)c2c(ncn2CCO)n(C)c1=O
- VDR inh = -4%&-1%&0%
> Cc1ccc2nc(N)[nH]c(=O)c2c1Sc1ccncc1
- VDR inh = -1%
> NS(=O)(=O)c1cc(-c2nn[nH]n2)c(NCc2cccs2)cc1Cl
- VDR inh = ?
> Cc1ccc2nc(NCCN)c3ncc(C)n3c2c1
- VDR inh = -10%
> C=C1c2cccc(O)c2C(O)=C2C(=O)[C@]3(O)C(O)=C(C(N)=O)C(=O)[C@@H](N(C)C)[C@@H]3[C@@H](O)[C@H]12
- VDR inh = -7%
> COc1ccccc1OCCNCC(O)COc1cccc2[nH]c3ccccc3c12 (stereo not drawn)
- VDR inh = 12%&-13%&6%

In a second layout: 5 of the compounds above.
| SMILES | VDR inh |
| --- | --- |
| CC(=O)Nc1ncc([N+](=O)[O-])s1 | 10% |
| CCCOC(=O)c1ccc(O)cc1 | -9%&7% |
| CC(=O)Nc1ccccc1 | 4%&1%&0% |
| CCCCNC(=O)[C@@H]1Cc2ccccc2N1C(=O)[C@H](N)CC | -2% |
| Cn1c(=O)c2c(ncn2CCO)n(C)c1=O | -4%&-1%&0% |

Next part.
> CC1CC2C3CC(F)C4=CC(=O)C=C[C@@]4(C)[C@@]3(F)C(O)C[C@]2(C)[C@]1(O)C(=O)COC(=O)C(C)(C)C (stereo partly drawn)
- VDR inh = -2%
> Cc1cccc(NC(c2ccccc2F)c2ccc3ccc(C)nc3c2O)n1 (stereo not drawn)
- VDR inh = -2%
> CCC(=O)O[C@@]1(C(=O)SCF)[C@@H](C)C[C@H]2[C@@H]3C[C@@H](F)C4=CC(=O)C=C[C@@]4(C)[C@]3(F)[C@@H](O)C[C@]21C
- VDR inh = 5%
> Cc1cccc(C)c1NC(=O)C1CCCCN1C (stereo not drawn)
- VDR inh = 0%&6%
> CC[C@@]1(O)CC2CN(CCc3c([nH]c4ccccc34)[C@](C(=O)OC)(c3cc4c(cc3OC)N(C)C3[C@@](O)(C(=O)OC)C(OC(C)=O)[C@]5(CC)C=CCN6CC[C@@]43C65)C2)C1 (stereo partly drawn)
- VDR inh = 0%
> COc1ccc2ccc(=O)oc2c1
- VDR inh = 2%&-14%
> COc1cc2nc(N3CCN(C(=O)[C@H]4COc5ccccc5O4)CC3)nc(N)c2cc1OC
- VDR inh = -19%
> CC1(C)OC2CC3C4CC(F)C5=CC(=O)C=C[C@@]5(C)[C@@]4(F)C(O)C[C@@]3(C)[C@]2(C(=O)CO)O1 (stereo partly drawn)
- VDR inh = -7%
> COc1ccc(-c2cc(=O)c3c(O)c(OC)c(OC)c(OC)c3o2)cc1OC
- VDR inh = 2%
> O=c1cc(-c2ccc(O)cc2)oc2cc(O[C@@H]3O[C@H](CO)[C@@H](O)[C@H](O)[C@H]3O[C@@H]3OC[C@](O)(CO)[C@H]3O)cc(O)c12
- VDR inh = 7%

> CCCCCCCCCCCCCC[N+](C)(C)Cc1ccccc1
- VDR inh = 1%
> COc1ccc2nc(NC(=O)Nc3ccccc3)sc2c1
- VDR inh = 2%&12%
> COC(c1ccccc1)(c1ccccc1)C(Oc1nc(C)cc(C)n1)C(=O)O (stereo not drawn)
- VDR inh = -1%&0%
> O=P(O)(O)OC(CO)CO
- VDR inh = 1%
> COc1ccc(CNC(=O)Nc2ccc3c(c2)N(C)C(=O)c2ccccc2S3)cc1OC
- VDR inh = 10%
> O=C(Nc1ccc(C(=O)O)c(O)c1)c1ccccc1
- VDR inh = 9%&0%
> NC(N)=NC(=O)Cc1c(Cl)cccc1Cl
- VDR inh = 10%&-1%&22%&3%
> CNC1CCCN(c2c(F)cc3c(=O)c(C(=O)O)cn(C4CC4)c3c2OC)C1 (stereo not drawn)
- VDR inh = 12%
> Cc1ccc(Nc2nc3ccccc3c3nnc(C)n23)c(C)c1
- VDR inh = 11%
> COc1ccc(CN2CCN(C(c3ccc(F)cc3)c3ccc(F)cc3)CC2)c(OC)c1OC
- VDR inh = 3%&-5%

> COc1ccc(/C=C/C(=O)O)cc1
- VDR inh = -14%&8%&2%
> COc1ccc(-c2cc(=O)c3c(OC)c(OC)c(OC)cc3o2)cc1OC
- VDR inh = -1%
> Cc1ccc(NC(=O)Cn2c(=O)n(CCC(=O)N3CCc4ccccc4C3)c(=O)c3ccccc32)c(C)c1
- VDR inh = 17%
> Cc1ccccc1Cc1c(C)nc2c(-c3ccccc3)c(C)[nH]n2c1=O
- VDR inh = -3%
> Cc1cccc2nc(-c3ccccn3)c(Nc3ccccc3)n12
- VDR inh = 1%
> O=C1Cc2c([nH]c3ccc([N+](=O)[O-])cc23)-c2ccccc2N1
- VDR inh = 13%
> Cc1[nH]c2ccccc2c1/C=N/NC(N)=S
- VDR inh = -3%
> COc1ccc(OCC(=O)Nc2cc(-c3nc4ccccc4s3)ccc2C)cc1
- VDR inh = -12%

Source: PubChem BioAssay (National Center for Advancing Translational Sciences (NCATS))
